SARS PLpro yeast = SARS-CoV PLP inhibition in yeast. 330,000 compounds, 0.19% hits. Potency, µM (doses to about 32.9 µM), for inactives: top-dose activity, positive = growth rescue. S. cerevisiae expressing SARS-CoV PLpro, growth rescue; control for the full effect not named in the record; active means well fitted rising curve with a large enough effect; inconclusive means small, poorly fitted or top-dose-only effect; inactive means no such curve, though single readings can be large or run the other way; also: 0% is about no effect; nearly all actives have a fitted effect of over 55% in size; growth read by luminescence after 48 h
Lassa entry inh = Lassa virus entry inhibition. Lassa virus pseudotype entry inhibition, cell reporter; control for the full effect not named in the record. Potency, µM (top dose mostly 37.9 µM), without a hit: top-dose activity change, negative = inhibition, most hits filed as inhibitors. 300,000 compounds, 1.2% hits; active means well fitted inhibition curve with a large enough effect; inconclusive means small, poorly fitted or top-dose-only effect, or effect the other way; inactive means flat fitted curve, though single readings scatter; tested in HEK293 cells; also: % is scaled to controls: 0 for no effect and ±100 for the full control effect; nearly all actives have a fitted effect of over 50% in size; luciferase read-out
NS1 function inh = influenza NS1 inhibition; Potency, µM (titrated, usually from 46.1 µM), inactives show at the highest dose activity, positive = more growth; S. cerevisiae slowed by influenza A NS1, growth recovery by OD600; 270,000 compounds, 0.4% hits; active means well fitted rising curve with a large enough effect; inconclusive means small, poorly fitted or top-dose-only effect; inactive means no such curve, though single readings can be large or run the other way; also: nearly all actives have a fitted effect of over 50% in size
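S. cerevisiae expressing influenza A NS1, grown in glucose, washed, then diluted 1:100 into pH 6.0 -URA galactose medium with 23 nl compound. Growth recovery read as OD600; NS1-free strain serves as control.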
Cruzain Triton = cruzain (T. cruzi) inhibition with detergent. P25779. purified cruzain, Z-FR-AMC fluorescence, 0.01% Triton. Potency, µM, inactives show max response, negative = inhibition, most hits filed as inhibitors. 200,000 compounds, 0.43% hits. AID 1478;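 also: plate controls were neutral wells for no effect and buffer without enzyme for full effect; nearly all actives have a fitted effect of over 40% in size; top concentration of the series not given in the record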
Target sequence (P25779 123-467 limits assumed): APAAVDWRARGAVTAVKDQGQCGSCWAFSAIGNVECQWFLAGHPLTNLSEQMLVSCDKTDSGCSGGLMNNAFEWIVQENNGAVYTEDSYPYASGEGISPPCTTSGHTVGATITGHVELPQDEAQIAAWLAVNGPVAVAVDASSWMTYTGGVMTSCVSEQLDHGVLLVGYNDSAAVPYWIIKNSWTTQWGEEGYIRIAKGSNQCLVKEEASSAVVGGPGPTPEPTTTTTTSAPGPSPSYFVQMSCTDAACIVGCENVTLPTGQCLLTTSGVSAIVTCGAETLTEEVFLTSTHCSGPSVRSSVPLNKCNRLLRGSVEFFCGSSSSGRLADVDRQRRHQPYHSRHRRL
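Enzyme 1.5 nM, Z-FR-AMC 2 uM, NaOAc 100 mM pH 5.5, DTT 5 mM, Triton X-100 0.01%; 15 min RT compound preincubation; kinetic ex360/em450, 60 s delta.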
RE007 growth inh = less growth of the S. pombe RE007 Vpr strain; Potency, µM (series often up to 92.2 µM), for the others: top-dose activity change, negative = less growth; S. pombe RE007 Vpr strain, BacTiter-Glo ATP luminescence, 24 h; control for the full effect not named in the record; 360,000 compounds, 0.21% hits; AID 651644; active = well fitted falling curve with a large enough effect; inconclusive = small, poorly fitted or top-dose-only effect; inactive = no such curve, though single readings can be large or run the other way;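 also: % is scaled to controls: 0 for no effect and ±100 for the full control effect; nearly all actives have a fitted effect of over 50% in size; the assay follows cell death caused by Vpr and the record does not say whether a fall means rescue or toxicity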
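Fission yeast strain RE007, carrying one chromosomally integrated HIV-1 vpr copy, was seeded at OD 0.01 in PMG+AL medium with 23 nL pinned compound. After 24 h at 30 °C and 99% humidity, viability was read by BacTiter-Glo luminescence.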
Cruzain inh noDet = inhibitors of Trypanosoma cruzi cruzain without detergent; AID 1476; purified cruzain, Z-FR-AMC fluorescence, no detergent; Potency, µM, for the others: max response, negative = inhibition, most hits filed as inhibitors; P25779; 200,000 compounds, 2.3% hits;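 also: plate controls were enzyme without inhibitor for no effect and buffer without enzyme for full effect; nearly all actives have a fitted effect of over 40% in size; top concentration of the series not given in the record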
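Detergent-free condition (0.00005% Triton X-100) in acetate buffer pH 5.5 with DTT. 1.5 nM enzyme and compound were pre-mixed 15 min, then 2 uM Z-FR-AMC substrate added; reaction progress from fluorescence change between first and third reads (60 s).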
2A StopGo = FMDV 2A StopGo reporter, luciferase signal; Potency, µM (titrated, usually from 57.9 µM), inactives show top-dose signal change, negative = less light; human cells with a luciferase reporter of 2A StopGo recoding; control for the full effect not named in the record; 410,000 compounds, 1.2% hits; active = well fitted falling curve with a large enough effect; inconclusive = small, poorly fitted or top-dose-only effect; inactive = no such curve, though single readings can be large or run the other way; tested in HEK293T cells; also: % is scaled to controls: 0 for no effect and ±100 for the full control effect; nearly all actives have a fitted effect of over 45% in size; luciferase light after 4 h
MARV entry inh = Marburg virus entry inhibition; Marburg virus pseudotyped entry inhibition, cell reporter; control for the full effect not named in the record; about a third of the inactives were read at about 46 µM; Potency, µM (doses to about 37.8 µM), for the others: top-dose activity change, negative = inhibition, hits mostly inhibitors; 300,000 compounds, 1.8% hits; active = well fitted inhibition curve with a large enough effect; inconclusive = small, poorly fitted or top-dose-only effect, or effect the other way; inactive = flat fitted curve, though single readings scatter; tested in HEK293 cells; about a fifth of its hits are not listed in these tables; also: % is scaled to controls: 0 for no effect and ±100 for the full control effect; luciferase read-out
Active calls of the source: *; ? = inconclusive; / = not tested or not shown; & = joins results of further samples; [ ] = another dose, or the depositor's remark. Unless noted, calls follow the shape of the dose curve; as a rule, active = well fitted curve in the direction sought with a large enough effect; inconclusive = small, poorly fitted or top-dose-only effect, or another doubt; inactive = no such curve, though single readings can be large; an effect the other way counts as inactive or inconclusive. Potency is read from the fitted curve at half-maximal effect.

1: COc1cc(NC(=O)c2ccc(F)cc2)c(OC)cc1Cl
2: Cc1cc(C)nc(SCC(=O)c2ccc(O)c(O)c2)n1
3: COc1ccccc1CNc1ncnc2c1cnn2-c1ccccc1
4: CC1CCC(=NNS(=O)(=O)c2ccc([N+](=O)[O-])cc2)CC1 (configuration not stated)
5: COC(=O)c1sc(N2C(=O)c3oc4ccccc4c(=O)c3C2c2cccs2)nc1C (configuration not stated)
6: N#CC(C#N)=C(C#N)c1ccc(Nc2ccccc2)cc1
7: CCCCC1=NC2(CCCC2)C(=O)N1Cc1ccc(-c2ccccc2-c2nn[nH]n2)cc1
8: CCOc1ccc(C(CC(=O)O)NC(=O)c2cccs2)cc1 (configuration not stated)
assay / entry	1	2	3	4	5	6	7	8
SARS PLpro yeast	13%	0%	-5%	/	0%	-7%	1%	17%
Lassa entry inh	-9%	/	/	13%[46.1 µM]	-17%	25%[46.1 µM]	/	-1%
NS1 function inh	-7%	?	-43%	/	1%	-74%	/	36%
Cruzain Triton	-4.0%	/	/	/	4.6%	/	1.5%	2.1%
RE007 growth inh	-8%	-1%	5%	-13%	-4%	18%	/	-6%
Cruzain inh noDet	7%	/	/	/	0%	/	?	3%
2A StopGo	87%[activator]	8%	0%	-11%	-35%	?	1%	-15%
MARV entry inh	0%	/	/	2%[46.1 µM]	8%[46.1 µM]	8%[46.1 µM]	/	97%

9: CC(C)Oc1ccc(CNC(=S)N/N=C/c2ccc([N+](=O)[O-])cc2)cc1
10: COc1ccc(/C(N)=N/OC(=O)c2cccc([N+](=O)[O-])c2)cc1OC
11: Cc1cccc(C)c1NC(=O)N1CCC(C(N)=O)(N2CCCCC2)CC1
12: CC1CCN(CC(=O)Nc2ccc(S(=O)(=O)N3CCCCC3)cc2)CC1
13: COCCNC(=O)CSc1ncnc2sc(-c3ccccc3)cc12
14: CN(C)c1nc(N)c2nccnc2n1
15: CC(C)NC(=O)C1CCCN(S(=O)(=O)c2ccc3c(ccn3C)c2)C1 (configuration not stated)
16: CN(C)c1c(F)cc(C(=O)NC(=O)NCc2cccnc2)cc1F
assay / entry	9	10	11	12	13	14	15	16
SARS PLpro yeast	-4%	0%	/	5%	1%	/	/	5%
Lassa entry inh	?	7%	4%[46.1 µM]	/	1%	0%	24%[46.1 µM]	6%[46.1 µM]
NS1 function inh	1%	3%	/	-5%	/	/	/	5%
Cruzain Triton	-1.2%	3.3%	0.8%	/	/	/	-0.6%	/
RE007 growth inh	12%	-17%	/	-2%	-2%	-7%	/	4%
Cruzain inh noDet	1%	-1%	12%	/	/	/	5%	/
2A StopGo	18%	0%	2%	-14%	3%	-18%	-14%	5%
MARV entry inh	?	?	-24%[46.1 µM]	/	4%[46.1 µM]	-10%	/	13%[46.1 µM]

Pulled by compound from the entries so far, 2 records:
11: Cc1cccc(C)c1NC(=O)N1CCC(C(N)=O)(N2CCCCC2)CC1
1: COc1cc(NC(=O)c2ccc(F)cc2)c(OC)cc1Cl
assay / entry	11	1
SARS PLpro yeast	/	13%
Lassa entry inh	4%[46.1 µM]	-9%
NS1 function inh	/	-7%
Cruzain Triton	0.8%	-4.0%
RE007 growth inh	/	-8%
Cruzain inh noDet	12%	7%
2A StopGo	2%	87%[activator]
MARV entry inh	-24%[46.1 µM]	0%

Next section.
17: C#CCOCCOCCOCCNc1nc(N2CCN(C(=O)[C@H](CCCCN)n3cc(C(N)CC(C)C)nn3)CC2)nc(N2CCN(C(=O)[C@H](CCC(=O)O)n3cc(C(N)[C@H](C)CC)nn3)CC2)n1 (some centres not stated)
18: O=C1CC(N2CCN(c3cccc(C(F)(F)F)c3)CC2)C(=O)N1c1ccc(F)cc1 (configuration not stated)
19: COc1ccc(CN(C(=O)c2cc(=O)c3ccccc3o2)C2CCS(=O)(=O)C2)cc1OC (configuration not stated)
20: CC(=O)Nc1ccc(NC(=O)CSc2nc3ccccc3nc2N2CCOCC2)cc1
21: CC(C)(C)OC(=O)CNC(=O)c1[nH]cnc1C(=O)NCCCCCNC(=O)OC(C)(C)C
22: O=C(NC1CCOCC1)C1CCC(=O)N(CCc2ccc(Cl)cc2)C1 (configuration not stated)
23: Cc1cccc(OCc2nc(CC(=O)Nc3ccc(C)c(C)c3)cs2)c1
24: Cc1c(Cl)c(C(=O)NNC(=S)Nc2ccccc2)nn1C
assay / entry	17	18	19	20	21	22	23	24
SARS PLpro yeast	-1%	-17%	-3%	/	3%	3%	/	-4%
Lassa entry inh	/	8%	9%[46.1 µM]	?	/	/	9%[46.1 µM]	0%
NS1 function inh	3%	-35%	-9%	/	-5%	-4%	/	-16%
Cruzain Triton	/	-3.4%	3.9%	-3.6%	/	/	-9.3%	-0.1%
RE007 growth inh	10%	-5%	-1%	/	-8%	-4%	/	-7%
Cruzain inh noDet	/	21%	3%	9%	/	/	-6%	-2%
2A StopGo	7%	-15%	-2%&-7%	-24%	16µM*	9%	3%	46%[activator]
MARV entry inh	/	?	6%&6%[46.1 µM]	-6%[46.1 µM]	/	/	-1%[46.1 µM]	?

25: CCn1nc(C)c(/C=N/NC(=O)c2ccoc2C)c1C
26: CN(CCC#N)c1ccc(/C=C(\C#N)c2ccccn2)cc1
27: Nc1nc(C(=O)N2CCOCC2)nn1C(=O)c1ccc(Cl)cc1
28: CCc1ccc(C(=O)OCC(=O)c2c(N)n(CC(C)C)c(=O)n(C)c2=O)cc1
29: CC(C)[C@H](NS(=O)(=O)c1cccc(C(F)(F)F)c1)C(=O)OCC(N)=O
30: CCOc1ccc2[nH]c(=O)c(CN(CCCO)C(C)=O)cc2c1
31: O=C(Nc1ccc(F)cc1)C(Sc1nnc2ccccn12)c1ccccc1 (configuration not stated)
32: N#CC(c1ccccc1)(c1ncc(C(F)(F)F)cc1Cl)N1CCOCC1 (configuration not stated)
assay / entry	25	26	27	28	29	30	31	32
SARS PLpro yeast	?	-31%	13%	-9%	2%	1%	-9%	1%
Lassa entry inh	?	2.2µM*	7%	?	-1%[46.1 µM]	0%	1%	?
NS1 function inh	13%	-10%	-31%	/	/	1%	-16%	6%
Cruzain Triton	-2.5%	-9.1%	-0.9%	/	/	-2.1%	-3.9%	0.4%
RE007 growth inh	-1%	-22%	-15%	9%	-10%	-11%	-13%	-4%
Cruzain inh noDet	-9%	-1%	11%	/	/	7%	-1%	-3%
2A StopGo	?	-74%	-21%	?	-1%	-24%	15%	-10%
MARV entry inh	17%[46.1 µM]	8.2µM*	18%	?	11%[46.1 µM]	?	2%	-11%

33: Cn1c(SCC(=O)Nc2cccc(NC(=O)c3cccs3)c2)nnc1-c1ccncc1
34: CNC[C@H](Cc1ccccc1)NC[C@@H](Cc1cccc2ccccc12)NCCc1ccc(C)cc1
35: O=C(C1=C(O)C(=O)N(CCCn2ccnc2)C1c1ccccc1)c1ccco1 (configuration not stated)
36: Cc1nc2ncnn2c(C)c1CCC(=O)NCCCN1CCN(c2cccc(Cl)c2)CC1
37: CCOC(=O)C1CCCN(C(=O)c2sc3nc(-c4ccc(OC)cc4)cn3c2C)C1 (configuration not stated)
38: Cc1ccccc1CC(=O)N1CCN(S(=O)(=O)c2cccs2)CC1
39: CCOc1ccc(NC(=O)c2c(C)oc3nc(C)nc(N4CCOCC4)c23)cc1
40: Nc1ccc(Oc2ncccn2)c(Cl)c1
assay / entry	33	34	35	36	37	38	39	40
SARS PLpro yeast	1%	-11%	-1%	-1%	-2%	-2%	/	1%
Lassa entry inh	0%	/	/	2%	3%	/	-8%[46.1 µM]	/
NS1 function inh	1%	3%	-4%	5%	-2%	2%	/	2%
Cruzain Triton	0.5%	/	/	-1.2%	-4.2%	/	0.1%	/
RE007 growth inh	4%	2%	6%	-1%	-8%[3.69 µM]	-2%	/	12%
Cruzain inh noDet	2%	/	/	-3%	23%	/	-3%	/
2A StopGo	-4%	-28%	-6%	0%	4%	-24%	-13%	14%
MARV entry inh	13µM*	/	/	-11%	-2%	/	/	/

Compound profiles, from the list above. Values in the order: SARS PLpro yeast | Lassa entry inh | NS1 function inh | Cruzain Triton | RE007 growth inh | Cruzain inh noDet | 2A StopGo | MARV entry inh
`Cc1nc2ncnn2c(C)c1CCC(=O)NCCCN1CCN(c2cccc(Cl)c2)CC1` is listed as -1% | 2% | 5% | -1.2% | -1% | -3% | 0% | -11%
`CCOC(=O)C1CCCN(C(=O)c2sc3nc(-c4ccc(OC)cc4)cn3c2C)C1` (configuration not stated) is listed as -2% | 3% | -2% | -4.2% | -8%[3.69 µM] | 23% | 4% | -2%

Next results follow.
41: Cc1ccc(Nc2sc(C(=O)c3ccccc3)c(N)c2S(=O)(=O)c2ccccc2)c(C)c1
42: COc1ccc(OC)c(CNc2ncc(-c3ccc(F)cc3)n2C)c1
43: CCCNC(=O)c1ccccc1NS(=O)(=O)c1ccc(OC)c(OC)c1
44: CCOC(=O)C1CCCN(S(=O)(=O)c2ccc3[nH]c(=O)oc3c2)C1 (configuration not stated)
45: Cc1ccc(S(=O)(=O)N2CCC(C(=O)NCCCOC(C)C)CC2)cc1
46: COC(=O)c1cccc(NC(=O)NC(=O)c2ccccc2Cl)c1
47: CC(C)OC(=O)Cn1cnc2ccc(Br)cc2c1=O
48: CCc1nnc2c(NCCc3ccc(OC)c(OC)c3)nc3ccccc3n12
49: CCC1(C)Cc2c(C#N)c(N)n(-c3ccccc3)c(=S)c2CO1 (configuration not stated)
assay / entry	41	42	43	44	45	46	47	48	49
SARS PLpro yeast	/	3%	3%	/	0%	1%	-18%	1%	-2%
Lassa entry inh	?	/	-4%	4%[46.1 µM]	16%	?	11%	?	-25%
NS1 function inh	/	7%	-3%	/	-10%	0%	-64%	-2%	3%
Cruzain Triton	-4.0%	/	-4.5%	1.0%	3.3%	/	3.1%	-0.3%	/
RE007 growth inh	/	-4%	-6%	/	-15%	-8%	30%	-9%	1%
Cruzain inh noDet	10µM*	/	3%	9%	5%	/	?	-3%	/
2A StopGo	-23%	-16%	21%	-22%	/	-12%	34%[activator]	-23%&2%	-5%
MARV entry inh	?	/	?	-25%[46.1 µM]	-1%	?	28%[46.1 µM]	?	?

Screens as filed in PubChem.
